# Screening data from PubChem BioAssay.
# TRPML1 blocker: inhibitors of human TRPML1 channel; activity change, negative = inhibition, % (test concentration not listed); TRPML1-inducible cells, Ca2+ dye fluorescence, FDSS; active compounds read low; inhibition of EC80 agonist-evoked calcium signal; AID 624415; actives 0.02% (n = 390,000); Q9GZU1; in the data active means activity change below about -50%; inconclusive means about -30% to -50%; inactive means above about -30%;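 note: stimulus is agonist 54-4 at its EC80 concentration; % is set by controls: 0 for no effect and ±100 for the full control effect; compound concentration not given in the record; the text of the record puts the active cut at -80%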
# Target sequence (Q9GZU1 whole entry, looked up): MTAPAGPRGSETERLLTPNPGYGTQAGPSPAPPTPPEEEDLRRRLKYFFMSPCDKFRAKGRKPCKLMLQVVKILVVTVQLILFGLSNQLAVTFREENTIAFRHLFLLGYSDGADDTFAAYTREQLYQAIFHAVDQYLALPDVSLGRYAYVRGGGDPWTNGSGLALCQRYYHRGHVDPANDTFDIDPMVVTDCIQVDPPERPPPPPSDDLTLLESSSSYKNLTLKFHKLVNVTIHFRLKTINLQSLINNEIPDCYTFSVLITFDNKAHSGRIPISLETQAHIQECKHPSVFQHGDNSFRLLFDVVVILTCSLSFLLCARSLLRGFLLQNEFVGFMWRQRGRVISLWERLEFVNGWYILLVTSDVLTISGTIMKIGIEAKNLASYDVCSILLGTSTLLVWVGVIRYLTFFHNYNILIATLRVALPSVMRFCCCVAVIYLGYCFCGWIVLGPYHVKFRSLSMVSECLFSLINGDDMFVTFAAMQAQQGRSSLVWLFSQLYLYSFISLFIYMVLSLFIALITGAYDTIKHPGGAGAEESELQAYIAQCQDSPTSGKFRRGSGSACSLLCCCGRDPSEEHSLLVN
#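 Tet-induced TRPML1-DL cells loaded with Ca8 no-wash calcium dye were read kinetically on FDSS. Compound addition was followed by EC80 agonist 54-4 (4 uM final); inhibition was read over 110 s.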
# ClpP mod: qHTS Assay for Activators of ClpP | ATP-dependent Clp protease proteolytic subunit (Bacillus subtilis (strain 168)), P80244 | actives 1.9% (n = 340,000) | purified B. subtilis ClpP, FRET peptide cleavage, 20 min | Potency, µM (highest dose often 57.5 µM), without a hit: top-dose activity change, negative = active; active = well fitted falling curve with a large enough effect; inconclusive = small, poorly fitted or top-dose-only effect; inactive = no such curve, though single readings can be large or run the other way; note: potency is the fitted concentration of half-maximal effect; the source files actives as falling curves though it sought activators and does not explain the sign; nearly all actives have a fitted effect of over 65% in size; many hits overshoot -100%
# Target sequence (P80244 whole entry, looked up): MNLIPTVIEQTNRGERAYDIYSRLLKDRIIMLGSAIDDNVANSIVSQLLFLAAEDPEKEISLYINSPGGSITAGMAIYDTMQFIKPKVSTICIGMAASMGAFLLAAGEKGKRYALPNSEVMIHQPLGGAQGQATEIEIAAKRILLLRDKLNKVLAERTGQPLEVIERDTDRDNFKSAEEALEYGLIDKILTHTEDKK
#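 ClpP 10 microg/mL final, pH 8 Tris/KCl buffer with BSA, glycerol, Tween-20; compound pinned in; FRET-FV substrate; RT 20 min; Ex320/Em430; ΔFRET vs ADEP 5.8 microM, DMSO, no enzyme.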
# An asterisk follows results filed as active; ? = inconclusive. A portion of the library; the hit share may differ from the screen's.
# The line under a structure holds: ClpP mod, TRPML1 blocker
> Cc1ccc(-c2nn(CC(=O)NC3CCCCC3)c3c2cnc2ccc(F)cc23)cc1C
    ?, 14.2
> CC(C)C1CC2=C(C(=O)OC(C)(C)O2)C(c2ccc(F)cc2)O1 (stereo not drawn)
    1.5%, -14.1
> Cc1ccc2onc(CC(=O)N3CCN(c4ccccc4)CC3)c2c1
    0.9%, -6.1
> Cc1nc2cc(-c3cccc(F)c3)nn2c(C)c1CCC(=O)NC(C)c1ccccc1 (stereo not drawn)
    4.1%, -9.1
> CCOc1ccc(CNC(=O)c2cnc(SC)nc2C)cc1
    -1.1%, 6.8
> O=C(Nc1ccc(O)c(-c2nc3ccccc3o2)c1)c1ccc(-c2cccc(Cl)c2)o1
    -0.7%, 2.8
> COc1ccc(NC(=O)c2c(NCc3cccs3)sc3c2CCCC3)cc1
    -3.0%, 1.9
> O=C(c1ccc(F)cc1)c1cn(Cc2ccccc2)c2cc3c(cc2c1=O)OCO3
    2.1%, 7.0
> O=C(Nc1sc2c(c1C(=O)Nc1ccccc1Cl)CCCC2)c1ccccc1F
    ?, 9.7
> COc1ccc(S(=O)(=O)N(CC(=O)N2CCC(C)CC2)c2ccc(C)cc2)cc1
    -2.2%, 35.4
> CN(Cc1ccccc1)c1cc2c(c3c1ccn3C)C1CCC2O1 (stereo not drawn)
    -16.5%, 0.8
> CCCN(CCC)CCCNC(=O)C1CCCN(Cc2nc(-c3ccc(Cl)cc3)oc2C)C1 (stereo not drawn)
    -3.1%, -24.9
> CC(=O)c1c(C)oc2c1cc(NS(=O)(=O)c1c(C)cc(C)cc1C)c1ccccc12
    -0.5%, -11.5
> CCOc1ccc(C2c3c(-c4ccccc4O)n[nH]c3C(=O)N2Cc2ccncc2)cc1 (stereo not drawn)
    -0.8%, 26.4
> Cc1ccc(C(C)(C)C)c(OCC(=O)NCCc2nc3ccccc3[nH]2)c1
    -0.3%, 18.8
> CCOc1ccccc1N1CC(c2nc3ccccc3n2CCOc2ccccc2OC)CC1=O (stereo not drawn)
    -7.7%, 7.1
> CCOC(=O)c1ccc(N2CCN(c3ccc(F)cc3)CC2)c(NC(=O)Nc2ccc(CC)cc2)c1
    -3.6%, -16.5
> CCCS(=O)(=O)c1c(S(=O)(=O)CCC)c2cc(C(C)(C)C)ccn2c1C(=O)c1ccc(OC)c(OC)c1
    -0.7%, 4.7
> CCOc1ccc(CNC(=O)c2cnc3sc(N(CC)CC)nn3c2=O)cc1
    1.0%, 6.3
> Cc1ccc2occ(-c3cc(-c4ccccc4)nc4c3COc3ccccc3-4)c(=O)c2c1
    -4.3%, 9.0
> CC(C)(C)c1ccccc1NC(=O)Nc1nc(C(N)c2ccccc2)cs1 (stereo not drawn)
    -2.9%, -6.8
> CCOC(=O)c1ccccc1NS(=O)(=O)c1ccc(N2CCCCS2(=O)=O)cc1
    -0.6%, 14.4
> CC(Nc1oc(-c2ccc(COc3ccc(Cl)cc3)o2)nc1C#N)c1ccccc1 (stereo not drawn)
    ?, 9.7
> NC(=O)c1cccc(-c2coc3c(C(=O)NC4CCCCC4)cccc23)c1
    -17.2%, -20.7
> CCOc1ccc(CCNS(=O)(=O)c2cc(Br)cc3c2N(C(C)=O)CC3)cc1OCC
    2.8%, 32.9
> Cc1cccc(NC(=O)N2CCC(CN3CCCCCC3)CC2)c1C
    0.2%, 1.1
> COc1ccc(C(=O)c2cn(Cc3ccc(F)cc3)c3c(F)cc(F)cc3c2=O)cc1
    -0.2%, 22.9
> O=C(c1ccc2c(c1)N(Cc1cccc(Cl)c1)C(=O)c1ccccc1S2=O)N1CCC(Cc2ccccc2)CC1 (stereo not drawn)
    -2.5%, -11.2
> Cc1cccc(-c2nnc(SCC(=O)Nc3ccc(C)c(C)c3)o2)c1
    -4.7%, -1.5
> N#Cc1ccccc1Cn1c(=O)n(Cc2ccc(C(=O)NC3CCN(Cc4ccccc4)CC3)cc2)c(=O)c2ccccc21
    1.2%, 10.3
> CCN(CCCNC(=O)c1cc2c(=O)n(CC)c3ccccc3c2s1)c1cccc(C)c1
    -15.0%, 5.0
> Nc1nnc2c(n1)[nH]c1ccccc12
    -0.4%, -10.0
> CC(=O)Nc1nonc1-c1nnc(SCc2ccc(C)cc2)n1C
    -1.3%, -3.6
> CCc1ccc(Oc2c(C(F)(F)F)oc3c(CN4CCN(C)CC4)c(O)ccc3c2=O)cc1
    -1.6%, 3.9
> Cc1ccc(C)c(NC(=O)CSc2nnc(C)n3c2cc2occc23)c1
    0.2%, 18.5
> Cc1ccc(C)c(NC(=O)Cn2ccn(-c3ccc(F)cc3)c(=O)c2=O)c1
    0.4%, -1.7
> COc1cc(C2CC(=O)N(c3ccc(C)c(Cl)c3)C3=C2C(=O)OC3)cc(OC)c1OC (stereo not drawn)
    -0.9%, 1.4
> COc1cccc(NC(=O)c2oc3ccccc3c2NC(=O)Cc2cccc(C)c2)c1
    4.2%, 67.3
> O=C(CSc1nc2ccccc2nc1Cc1ccc(Cl)cc1)N1CCc2ccccc21
    -0.7%, -10.0
> COc1ccc(CCCc2nnc(SCC(=O)Nc3ccc(Cl)cc3)o2)cc1
    -6.2%, 14.6
> CCCOc1ccc(NC(=O)CC2C(=O)N(c3ccc(F)cc3)C(=O)N2CC(C)C)cc1 (stereo not drawn)
    -2.0%, 2.6
> Cc1ccc(C)c(NC(=O)c2nc(S(=O)(=O)Cc3ccc(F)cc3)ncc2Cl)c1
    3.2%, 4.9
> Cc1ccccc1Cn1nnc2c(=O)[nH]c(C3CCCN(C(=O)c4ccc(C(C)(C)C)cc4)C3)nc21 (stereo not drawn)
    -1.7%, 27.7
> CCCCN(C)c1c(C)nc2ccc(C(=O)Nc3ccc(OC)c(OC)c3)cn12
    -0.2%, 13.8
> COc1ccc(-n2nc(C(=O)N3CCCC(C)C3)c3c4ccccc4n(C)c3c2=O)cc1Cl (stereo not drawn)
    -11.9%, -1.5
> CC(=O)Nc1c(C)nn(-c2ccccc2)c1N1CCC(C(=O)NCc2cccc(Cl)c2)CC1
    -1.3%, -12.7
> CCOC(=O)c1[nH]c2ccccc2c1NC(=O)c1cc(OCC)c(OCC)c(OCC)c1
    44.9%, 2.4
> Cc1ccc(-c2noc(C(C)NC(=O)c3ccco3)n2)cc1 (stereo not drawn)
    -1.4%, 4.9
> COc1ccc(C2(N3CCN(c4cc(C)ccc4C)CC3)C(=O)c3ccccc3C2=O)cc1
    -0.3%, 14.6
> O=C(CSC1=Nc2ccccc2N=C(c2ccc(F)cc2)C1)NCc1ccccc1
    -1.6%, -3.0
> O=C(Cn1c(=O)n(Cc2ccccc2)c(=O)c2sc3ccccc3c21)Nc1ccc(F)cc1
    ?, 59.2
> Cc1cccc(C(=O)OCc2cc(=O)n3nc(-c4cccs4)sc3n2)c1
    -14.9%, 3.6
> CCOC(=O)c1sc2ccccc2c1S(=O)(=O)Nc1cccc(C(F)(F)F)c1
    -1.8%, -13.0
> Cc1cc2oc3c(c(=O)c2cc1C)C(c1ccc(C(C)C)cc1)N(c1nc(C)c(C)s1)C3=O (stereo not drawn)
    1.8%, -5.9
> CC(=O)C1=C(c2ccc(C)c(C)c2)N(C(C)=O)n2c(nnc2-c2ccc(Cl)cc2)S1
    -7.2%, 49.1
> Cc1ccc(S(=O)(=O)c2nc(-c3ccco3)oc2SCC(=O)Nc2ccc(F)cc2)cc1
    2.7%, 21.0
> O=C(O)c1ccc(CNCc2ccc(Cl)cc2)s1
    -0.9%, -8.0
> Fc1cccc(-n2ncc3c2ncn2nc(Cc4ccccc4)nc32)c1
    -11.9%, 46.1
> COC(=O)Cc1c(C)c2ccc3c(c2oc1=O)CN(Cc1ccccc1OC)CO3
    57.8%, -9.2
> CC(NC(=O)c1ccc2c(c1)N(Cc1ccc(Cl)cc1)C(=O)CS2)c1ccccc1 (stereo not drawn)
    -3.3%, 0.7

# Next structures follow:
# The line under a structure holds: ClpP mod, TRPML1 blocker
> COc1cccc(N2CCN(C(=O)CN3C(=O)COc4ccc(S(=O)(=O)N5CCC(C)CC5)cc43)CC2)c1
    0.3%, 2.0
> Cc1ccc(NC(=O)c2oc3ccccc3c2NC(=O)Cc2ccccc2)cc1
    145.3%, 59.0
> Cc1ccc(CNC(=O)CCCN2C(=O)CCn3nc(-c4cccn4C)cc32)cc1
    -4.7%, -12.1
> Cc1ccc(-n2nc(CO)c(C(=O)NCCCc3ccccc3)n2)cc1C
    31.6µM*, 9.4
> COc1ccc(-c2noc(-c3ccc(C)cc3Cl)n2)cc1OC
    -2.0%, 6.5
> CC(C)CC(C(=O)NCc1ccc(F)cc1)N1Cc2ccccc2C1=O (stereo not drawn)
    -0.6%, 16.3
> CC(=O)N1CCc2cc(S(=O)(=O)NC(Cc3ccccc3)C(=O)Nc3ccc(C)cc3C)ccc21 (stereo not drawn)
    -0.8%, -16.7
> CCCn1c(=O)sc2cc(NC(=O)c3ccccc3Cl)ccc21
    -23.5%, 20.6
> CCCCOc1cccc(C2c3c(-c4cc(C)ccc4O)n[nH]c3C(=O)N2CCOC)c1 (stereo not drawn)
    1.5%, 27.8
> COc1ccc(-c2nc3scc(CCNS(=O)(=O)c4ccc(Oc5ccccc5)cc4)n3n2)cc1OC
    -20.2%, 17.1
> COc1ccc(NC(=O)c2cc(C3CC3)nc3c2c(C)nn3-c2ccccc2)cc1OC
    3.4%, -4.9
> COc1cc(OC)c(NC(=O)N2CCc3c([nH]c4ccccc34)C2c2ccccc2F)cc1Cl (stereo not drawn)
    -0.1%, 9.8
> COc1ccc(Nc2nc(N)c3cc(OC)c(OC)cc3n2)cc1
    -17.6%, 10.2
> Cc1csc2nc(COC(=O)c3ccc(F)cc3)cc(=O)n12
    1.1%, -8.4
> COc1cccc(N2CC(NC(=O)/C=C\c3ccc4c(c3)OCO4)CC2=O)c1 (stereo not drawn)
    4.1%, 3.0
> COC(=O)c1ccccc1NC(=O)CSc1c2c(nc3ccc(Cl)cc13)CCCC2
    1.3%, -0.2
> COc1ccc(CCNC(=O)CCCn2c(=O)c3ccccc3n(Cc3ccccc3C#N)c2=O)cc1OC
    -8.5%, 10.5
> CCCCS(=O)(=O)c1nc(-c2ccc(Br)cc2)cc(-c2ccccc2)c1C#N
    -25.5%, 19.9
> Cc1cccc(NC(=O)c2ccc(CNS(=O)(=O)c3ccc4c(c3)C(C)(C)C(=O)N4C)cc2)c1
    -2.9%, 12.0
> CC1=C(C(=O)OC2CCCCCC2)C(c2ccc(Cl)cc2)CC(=O)N1 (stereo not drawn)
    -6.2%, -1.3
> CC1CCCCN1S(=O)(=O)c1ccc(C(=O)Nc2sc3c(c2C(N)=O)CC(C)(C)NC3(C)C)cc1 (stereo not drawn)
    47.8%, -7.6
> CCc1nc2c(OCc3ccc(C(F)(F)F)cc3)cccn2c1N(C=O)Cc1ccc(OC)cc1
    0.2%, 18.4
> Cc1cccc(N2CCN(C(=O)c3ccc(Nc4nc5ccccc5n5nnnc45)cc3)CC2)c1C
    -13.4%, 6.7
> O=C(c1ccccc1Cl)N(Cc1ccco1)Cc1ccco1
    1.0%, -13.5
> O=C(Cc1ccc(F)cc1)NC1CC(=O)N(c2ccc3c(c2)OCCO3)C1 (stereo not drawn)
    -1.2%, -8.2
> CC(=O)c1cc(-c2ccc(F)cc2)n(CC(=O)Nc2cc(C)cc(C)c2)c1C
    -2.8%, 6.5
> Cc1ccc(NC(=O)C2CCN(c3nnc(-n4cccc4)s3)CC2)cc1Cl
    -2.9%, -1.8
> NC(=O)Cn1c(=O)n(CCCCCC(=O)NCc2ccccc2Cl)c(=O)c2sccc21
    2.1%, 22.9
> CCOc1ccccc1NC(=O)CN(c1cc(C)cc(C)c1)S(=O)(=O)c1c(C)nn(C)c1C
    0.5%, 14.6
> CCCCOc1ccc(CNC(=O)Cc2ccc(NC(=O)N3CCCCc4ccccc43)cc2)cc1
    -4.6%, -5.9
> Cc1cc(C)c(-c2n[nH]c3c2C(c2ccccc2F)N(CCO)C3=O)c(O)c1 (stereo not drawn)
    -1.6%, 21.6
> CCN(CC)S(=O)(=O)c1ccc2c(c1)nc(CN(C)C(=O)Nc1ccc(C)c(Cl)c1)n2C
    -5.3%, 7.9
> COc1ccc(N2CC(NC(=O)c3ccc(S(=O)(=O)N4CCOCC4)cc3)CC2=O)cc1OC (stereo not drawn)
    -4.4%, -4.3
> CC(=O)c1ccc(NC(=O)C2CCC(CNS(=O)(=O)c3ccc4c(c3)CCCC(=O)N4)CC2)cc1 (stereo not drawn)
    -0.7%, 4.7
> CCc1ccc(C2C(C(=O)Nc3ccccc3OC)=C(C)Nc3nc(SCc4ccccc4)nn32)cc1 (stereo not drawn)
    -16.1%, -6.0
> CCc1ccc2oc(C(=O)NCC(c3ccc(Cl)cc3)N3CCOCC3)c(C)c2c1 (stereo not drawn)
    -1.9%, 17.9

# An excerpt of these results, as tab-separated lines.
canonical_smiles	ClpP mod	TRPML1 blocker
NC(=O)Cn1c(=O)n(CCCCCC(=O)NCc2ccccc2Cl)c(=O)c2sccc21	2.1%	22.9
CCOc1ccccc1NC(=O)CN(c1cc(C)cc(C)c1)S(=O)(=O)c1c(C)nn(C)c1C	0.5%	14.6
CCCCOc1ccc(CNC(=O)Cc2ccc(NC(=O)N3CCCCc4ccccc43)cc2)cc1	-4.6%	-5.9
